Source: PubChem BioAssay (National Center for Advancing Translational Sciences (NCATS))
Sfp PPTase inh: qHTS Assay for Inhibitors of Bacillus subtilis Sfp phosphopantetheinyl transferase (PPTase); AID 1490, 2009; 310,000 compounds, 3.5% hits; Biochemical Sfp PPTase activity, qHTS; Potency, µM, for inactives: max response, negative = inhibition, actives largely listed as inhibitors; active = well fitted inhibition curve with a large enough effect; inconclusive = small, poorly fitted or top-dose-only effect, or another doubt; inactive = no such curve, though single readings can be large or run the other way;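 also: the enzyme is Sfp with the accession as filed and its product quenches rhodamine fluorescence; potency is read from the fitted curve at half-maximal effect; 0% = enzyme reaction without inhibitor and -100% = no enzyme wells; top concentration of the series not given in the record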
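Compounds were incubated with enzyme (final 15 nM) for 15 min at room temperature before substrate addition started the reaction. Fluorescence at 525 nm excitation, 598 nm emission was recorded immediately and after 30 minutes.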
TRPV1 potentiator: HTS Assay for Compounds that Act as Potentiators of the Vanilloid Receptor 1; potentiation, % at 8.33 µM; 320,000 compounds, 0.02% hits; Transient receptor potential cation channel subfamily V member 1 (Homo sapiens), Q8NER1; TRPV1-expressing cells, Fluo-8 calcium influx, capsaicin EC20 potentiation; host cell line not named in the record; control for the full effect not named in the record; AID 540277, 2011; active means potentiation above 80%; inconclusive means 30% to 80%; inactive means below 30%; also: 0% is about no effect
Target sequence (Q8NER1 whole entry, looked up): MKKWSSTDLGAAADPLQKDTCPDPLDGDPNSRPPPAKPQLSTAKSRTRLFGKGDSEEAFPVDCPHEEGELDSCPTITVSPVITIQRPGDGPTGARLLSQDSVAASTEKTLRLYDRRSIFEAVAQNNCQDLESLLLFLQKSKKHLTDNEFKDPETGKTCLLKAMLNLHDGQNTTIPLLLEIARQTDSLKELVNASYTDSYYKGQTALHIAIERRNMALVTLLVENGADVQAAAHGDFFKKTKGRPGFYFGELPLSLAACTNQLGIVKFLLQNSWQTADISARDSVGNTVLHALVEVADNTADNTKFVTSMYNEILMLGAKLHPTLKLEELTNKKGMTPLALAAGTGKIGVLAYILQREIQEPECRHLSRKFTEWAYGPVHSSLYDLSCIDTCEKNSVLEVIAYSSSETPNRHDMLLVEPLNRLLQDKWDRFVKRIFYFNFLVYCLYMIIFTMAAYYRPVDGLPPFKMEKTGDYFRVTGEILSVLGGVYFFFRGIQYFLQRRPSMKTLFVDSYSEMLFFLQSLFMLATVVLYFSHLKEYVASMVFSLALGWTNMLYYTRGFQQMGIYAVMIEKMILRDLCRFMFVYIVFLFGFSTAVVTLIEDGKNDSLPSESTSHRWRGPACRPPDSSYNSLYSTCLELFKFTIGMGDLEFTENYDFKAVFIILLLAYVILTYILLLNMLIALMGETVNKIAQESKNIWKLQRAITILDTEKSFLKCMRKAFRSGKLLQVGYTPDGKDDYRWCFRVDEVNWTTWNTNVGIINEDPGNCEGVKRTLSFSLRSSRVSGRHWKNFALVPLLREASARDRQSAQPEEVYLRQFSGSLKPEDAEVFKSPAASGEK
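Fluo-8 calcium influx in TRPV1-expressing cells, kinetic read (ex 480/em 520 nm). Compound added and read 3 min for agonist activity, followed by capsaicin at EC20 final and 2 min further read for enhancement.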
D2 agonist: Beta-Arrestin HTS for Positive Allosteric Modulators of the Human D2 Dopamine Receptor: Agonists. 360,000 compounds, 0.084% hits. D(2) dopamine receptor (Homo sapiens), P14416. activation, % (no concentration beside the values). DiscoveRx PathHunter D2 beta-arrestin, luminescence, 90 min; 100% = 57 uM dopamine signal; in the data active = activation above about 40%; inconclusive = about 15% to 40%; inactive = below about 15%; also: compound concentration not given in the record; the text of the record calls up to 30% inactive
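Agonist mode: compounds alone added to overnight-plated D2 PathHunter cells for 90 min at 37 C, with 57 uM final dopamine (EC100) defining full response. Beta-arrestin recruitment detected by chemiluminescent reagent, read after 1 h at ambient temperature.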
PINK1 expr mod: A Quantitative High throughput Screen to Identify Chemical Modulators of PINK1 Expression | Potency, µM (titrated, usually from 76.6 µM), inactives show top-dose activation (PINK1 increase), most hits filed as activators | PINK1 immunofluorescence, high-content cytometry, 24 h | 410,000 compounds, 0.2% hits; active = well fitted activation curve with a large enough effect; inconclusive = small, poorly fitted or top-dose-only effect; inactive = flat fitted curve, though single readings scatter; cell line not stated here;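 also: potency is read from the fitted curve at half-maximal effect; % of control where 0% means no effect; nearly all actives have a fitted effect of over 65% in size; a mitochondrial uncoupler was the plate control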
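Compound titrations (5 concentrations, 24 h) on a stable cell line; DMSO and CCCP controls. Endpoint: fixed-cell PINK1 immunofluorescence with mitochondrial, cell and nuclear markers, scanned by microplate cytometer.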
Six1-Eya2 inh: qHTS Assay for Inhibitors of the Six1/Eya2 Interaction; AlphaScreen GST-Six1/His-Eya2 binding, biochemical; hits give low values; control for the full effect not named in the record; activity change, % (concentration not given with the values); 360,000 compounds, 0.56% hits; in the data active = activity change below about -65%; inconclusive = about -30% to -65%; inactive = above about -30%; also: % is scaled to controls: 0 for no effect and ±100 for the full control effect
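GST-Six1 + His-Eya2 (5X stock: 250/500 nM); Tris pH 8.0, 300 mM NaCl, 0.05% BSA, 0.02% Tween 20; GSH donor/Ni acceptor beads; 1 h 37 °C dark; AlphaScreen readout.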
CtBP-E1A blk: qHTS Assay for Inhibitors of the CtBP/E1A Interaction; CtBP / adenovirus E1A interaction (AlphaScreen); activity change, % (test concentration not listed); 340,000 compounds, 0.49% hits; AlphaScreen GST-E1A/His-CtBP binding, 1536-well; hits give low values; control for the full effect not named in the record; in the data active means activity change below about -65%; inconclusive means about -30% to -65%; inactive means above about -30%; also: % is scaled to controls: 0 for no effect and ±100 for the full control effect
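In 5 uL wells, 23 nL compound meets equimolar GST-E1A and His-CtBP (5X stock 125 nM each) for 2 h, 37 °C. Beads (5X, 50 ug/mL) then 1 h, 37 °C, dark.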
D2 potentiator: Beta-Arrestin HTS for Positive Allosteric Modulators of the Human D2 Dopamine Receptor: Potentiators. potentiation, % (no concentration beside the values). AID 624464, 2012. 360,000 compounds, 0.23% hits. DiscoveRx D2 beta-arrestin cells, luminescence, 90 min; 100% = 57 uM dopamine signal; active = potentiation of 50% or more; inconclusive = 30% to 50%; inactive = 30% or less;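 also: compound concentration not given in the record; tested on top of an EC20 dose of dopamine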
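PathHunter D2 cells, attached overnight at 37 deg C, received compound in DMSO plus dopamine at EC20 (50 nM final) for 90 min at 37 deg C. Beta-arrestin recruitment was read as luminescence after 1 h with detection reagent at ambient temperature.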
* hit, by the source's call; u = inconclusive; x = no result given; & = joins results of further samples; [ ] = dose if it differs, or a comment.

SMILES	Sfp PPTase inh	TRPV1 potentiator	D2 agonist	PINK1 expr mod	Six1-Eya2 inh	CtBP-E1A blk	D2 potentiator
NS(=O)(=O)c1cccc(NC(=O)CSc2n[nH]c(-c3cccs3)n2)c1	x	26	0.4	2.5%	-3	x	15
COc1ccc(-c2cc(C(F)(F)F)nc(SCC(=O)NCc3cccs3)n2)cc1OC	-12%	-11	-2.4	u	-3	3	1
COc1ccc(-c2ccc3c(c2)C2CC3CCN2C(=O)C(C)(C)C)cc1 (stereo unspecified)	x	x	0.4	0.3%	-6	-1	-8
O=C(NCCN1CCOCC1)C1CCN(S(=O)(=O)N2CCCC2)CC1	14%	0	3.9	-1.1%	6	x	-3
NS(=O)(=O)c1ccc(CNS(=O)(=O)c2ccc3ccccc3c2)cc1	0%	0	-1.8	-0.7%	44	0	-11
Cc1ncc(COCc2ccccc2)c(CO)c1OCc1ccccc1	x	x	3.7	-4.6%	-4	14	-6
COc1ccc(N=C2C(=O)Nc3ccccc32)cc1	-14%	7	-13	-4.1%[38.3 µM]	1	-6	-27
N#Cc1ccc(-c2nc3c(Cl)cc(C(F)(F)F)cn3c2Cc2ccccc2C(F)(F)F)cc1	x	x	x	1.1%	-3	3	x
CCc1cccc(C)c1NC(=O)CCCSc1nc2ccccc2s1	6%	25	-1.2	11%	2	-1	-18
Cc1cc(NC(=O)c2cc(-c3ccccc3)on2)no1	8%	22	-2.2	1.6%	3	4	-5
O=C(CCC(=O)Nc1ccc(F)cc1)N/N=C/c1cccs1	15%	-15	-5.3	-1.1%	-12	-2	-6
COc1cc(CN2CCC(CO)(Cc3cccc(C(F)(F)F)c3)CC2)ccc1F	-8%	3	-7.6	1.2%	1	0	-17
O=C(NCCCN1CCCC1=O)C1CCC(CNS(=O)(=O)c2ccc(Cl)cc2)CC1 (stereo unspecified)	5%	1	-4.7	-1.1%	5	-3	-8
CC(=O)Nc1ccc(S(=O)(=O)NC(C(=O)O)C(C)C)cc1 (stereo unspecified)	x	x	-2.2	-3.3%[38.3 µM]	6	0	-11
CC(C)N1C/C(=C/c2cccnc2)C(=O)/C(=C/c2cccnc2)C1	-2%	8	-3.0	23%	1	-2	-12
c1ccc(Cn2nc(-c3ccccc3)nc2-c2ccccc2)cc1	-21%	23	1.6	2.7%	1	-8	-1
Cc1ccc(NC(=O)c2cc3ccccc3oc2=N)cc1	8%	21	0.2	-0.6%	-7	x	-4
O=C(CNC(=O)c1cccc(Cl)c1)N/N=C/C=C/c1ccccc1	-4%	3	-0.7	9.4%	8	10	-7
Cc1ccc(NS(=O)(=O)c2ccc3c(c2)NC(=O)CCS3)c(C)c1	5%	-13	-1.3	-0.3%	-3	5	0
CN(CC(=O)NCC(=O)Nc1ccc(F)c(F)c1F)C1CCS(=O)(=O)C1 (stereo unspecified)	x	0	-5.2	-2.0%	6	-4	-2
O=C(CNC(=O)c1ccccc1F)NC1CC1	26%	-3	-0.5	2.2%[38.3 µM]	0	3	-2
Cc1cc(OCCCCn2ccnc2)cc(C)c1Cl	-8%	16	0.5	u	21	-25	-16
O=C(Nc1nc2ccccc2n1CCN1CCOCC1)c1ccc(COc2ccccc2Br)o1	15%	6	-22	-1.3%	-23	-9	-19
Cc1ccc(S(=O)(=O)N2CCN(C(=O)c3ccc(-n4cncn4)c([N+](=O)[O-])c3)CC2)cc1	x	-11	-3.0	1.3%	-2	4	5
CCCCOP(=O)(c1ccc(N(C)C)cc1)C(O)c1ccc(OC)c(OC)c1 (stereo unspecified)	2%	0	-1.4	-0.3%	0	6	-16

Some entries already given with just Six1-Eya2 inh, D2 potentiator and CtBP-E1A blk.
| SMILES | Six1-Eya2 inh | D2 potentiator | CtBP-E1A blk |
| --- | --- | --- | --- |
| O=C(CCC(=O)Nc1ccc(F)cc1)N/N=C/c1cccs1 | -12 | -6 | -2 |
| COc1cc(CN2CCC(CO)(Cc3cccc(C(F)(F)F)c3)CC2)ccc1F | 1 | -17 | 0 |

Continued.
SMILES	Sfp PPTase inh	TRPV1 potentiator	D2 agonist	PINK1 expr mod	Six1-Eya2 inh	CtBP-E1A blk	D2 potentiator
c1ccc(SC23CCCCN(CCC2)C32OCCO2)cc1 (stereo unspecified)	x	x	x	2.1%	-29	-10	x
NS(=O)(=O)c1cccc(NC(=O)CSc2nnnn2-c2ccccc2)c1	15%	7	3.7	-0.6%	-1	1	0
Cc1onc(-c2ccccc2)c1-c1nnc(COC(=O)c2ccc(N(C)C)cc2)o1	x	x	6.9	0.7%	-16	2	10
O=C(CCl)Nc1ccccc1C(=O)c1ccccc1	0%	14	-5.7	-0.9%	0	-19	-9
Cc1ccc(S(=O)(=O)N2C[C@H]3N(C(=O)OC(C)C)N(C(=O)OC(C)C)C[C@H](OC(=O)NC4CCCC4)[C@@]3(O)C2)cc1	x	x	-8.1	3.3%	0	1	2
N#C/C(=C1\C(=O)Nc2c(Cl)cc(Cl)cc21)c1nnc2n1CCCCC2	u	3	5.5	0.1%	1	-1	67*
Cc1ccccc1CNC(=O)C(=O)NCCC1CCCCN1S(=O)(=O)c1cccs1 (stereo unspecified)	x	-22	-3.8	-7.1%	-6	5	4
CCCNC(=O)C1(C)CCCN(C(=O)c2cccc(C(F)(F)F)c2)C1 (stereo unspecified)	x	x	-4.6	6.6%	2	3	-4
O=C(C[C@@H]1C/C=C\CCC(=O)OC[C@H](Cc2ccccc2)NC1=O)N[C@@H](CO)Cc1ccccc1	x	x	-0.9	1.7%	3	-2	-31
Cc1ccc(OCC(=O)Nc2nnn(C)n2)c(C)c1	18%	8	-2.6	0.7%	2	3	-12
COC(=O)C1=C(N)Oc2cc(N(C)C)ccc2C1c1ccccc1OC (stereo unspecified)	-15%	-26	-1.2	2.2%	u	u	-2
CCOC(=O)c1ccc(NC(=O)c2cc(S(=O)(=O)N3CCOCC3)cn2C)cc1	-6%	-3	1.0	-0.4%	6	-2	3
CC(C)(C)c1ccc(NC(=O)CSc2n[nH]c(=O)n2-c2cccnc2)cc1	2%	21	-2.5	0.9%	0	5	-10
CCN(CC)S(=O)(=O)c1ccc2c(c1)nc(CCC(=O)Nc1ccccc1Cc1ccccc1)n2CC	7%	5	-1.6	-1.9%[38.3 µM]	1	-9	-1
CC1CCN(C(=O)c2cc3nc(-c4ccccc4)cc(-c4ccccc4)n3n2)CC1	u	-1	1.6	27%[38.3 µM]	7	16	-2
Cc1c(C(=O)NCc2ccc(F)cc2)sc(=O)n1Cc1ccccc1	x	x	6.3	0.8%	-10	2	-7
COc1ccc(-c2csc(C(C)(O)c3ccc(F)c(F)c3)n2)cc1OC (stereo unspecified)	x	x	u	6.3%	1	1	0
COC(=O)CSc1nc2ccccn2c(=O)c1C=O	1%	0	-0.9	-0.7%	-3	1	-3
COc1ccccc1CNC(=O)C(CCSC)NC(=O)c1cccc(S(=O)(=O)N2CCOCC2)c1 (stereo unspecified)	x	x	1.1	2.3%	-10	-2	-10
CCNC(=O)CSc1nnc(-c2ccccc2)n1-c1ccc(OCC)cc1	-4%	-3	0.5	-1.5%[38.3 µM]	2	7	-3
Cc1nn(CCCC(=O)Nc2cc(Oc3ccc(F)cc3)cc([N+](=O)[O-])c2)c(C)c1[N+](=O)[O-]	5%	-8	-2.1	-0.2%	-6	4	-22
O=c1[nH]cnc2[nH]ncc12	13%&8%&10%	-9	-4.1	0.7%	1	4	5
CC(C)c1ccc(NC(=O)[C@H](NC(=O)[C@@H]2Cc3ccccc3CN2)c2ccccc2)cc1	-15%	1	-2.6	u	-4	-2	-19
COc1ccc(C(=O)Nc2ccc(Nc3ccccc3)cc2)cc1OC	-9%	-10	-3.8	2.6%	-15	-3	-2
C=CCNC(=O)c1cc(-c2ccncc2)nc2c(C)cc(C)cc12	8%	1	-3.7	3.1%	2	5	-8

The closing 6 entries of the part before lead into the next.
SMILES	Sfp PPTase inh	TRPV1 potentiator	D2 agonist	PINK1 expr mod	Six1-Eya2 inh	CtBP-E1A blk	D2 potentiator
CCNC(=O)CSc1nnc(-c2ccccc2)n1-c1ccc(OCC)cc1	-4%	-3	0.5	-1.5%[38.3 µM]	2	7	-3
Cc1nn(CCCC(=O)Nc2cc(Oc3ccc(F)cc3)cc([N+](=O)[O-])c2)c(C)c1[N+](=O)[O-]	5%	-8	-2.1	-0.2%	-6	4	-22
O=c1[nH]cnc2[nH]ncc12	13%&8%&10%	-9	-4.1	0.7%	1	4	5
CC(C)c1ccc(NC(=O)[C@H](NC(=O)[C@@H]2Cc3ccccc3CN2)c2ccccc2)cc1	-15%	1	-2.6	u	-4	-2	-19
COc1ccc(C(=O)Nc2ccc(Nc3ccccc3)cc2)cc1OC	-9%	-10	-3.8	2.6%	-15	-3	-2
C=CCNC(=O)c1cc(-c2ccncc2)nc2c(C)cc(C)cc12	8%	1	-3.7	3.1%	2	5	-8
Cn1c(=O)c2c(nc(N3CCCCC3)n2CCSc2nc3ccccc3s2)n(C)c1=O	-9%	-11	-1.3	9.7%[38.3 µM]	-1	-5	-6
Cc1ccc(NC(=O)CSCC(=O)NC2(C)CCS(=O)(=O)C2)cc1 (stereo unspecified)	x	8	-4.6	1.6%	5	2	-3
COc1ccc(C2CCCN2C(=S)Nc2ccc(C)cc2Cl)cc1OC (stereo unspecified)	17%	-3	6.0	1.9%	-11	2	3
COc1ccc(OC)c(NC(=O)COC(=O)CCCN=C2NS(=O)(=O)c3ccccc32)c1	x	x	3.9	-0.9%	-4	-3	-9
Cc1cc(NC(=O)COC(=O)[C@@H](NS(=O)(=O)c2ccccc2)C(C)C)no1	-8%	0	-3.9	-0.6%	2	-3	-1
CCC1(c2ccc(F)cc2)NC(=O)N(CC(=O)Nc2ccc(S(N)(=O)=O)cc2)C1=O (stereo unspecified)	17%	8	0.9	0.9%	-2	12	-7
